Screens from PubChem.
nsP2pro inh – CHIKV nsP2 protease inhibition, primary qHTS; 1.1% of 31,000 active; Q8JUX6; Potency, µM (titrated, usually from 24.9 µM), inactives show at the top dose activity change, negative = inhibition, actives largely listed as inhibitors; FRET peptide cleavage, nsP2pro, fluorescence 1 h; active means well fitted inhibition curve with a large enough effect; inconclusive means small, poorly fitted or top-dose-only effect; inactive means no such curve, though single readings can be large or run the other way; further: nearly all actives have a fitted effect of over 60% in size; a reference inhibitor and vehicle were the controls
Target sequence (Q8JUX6 whole entry, looked up): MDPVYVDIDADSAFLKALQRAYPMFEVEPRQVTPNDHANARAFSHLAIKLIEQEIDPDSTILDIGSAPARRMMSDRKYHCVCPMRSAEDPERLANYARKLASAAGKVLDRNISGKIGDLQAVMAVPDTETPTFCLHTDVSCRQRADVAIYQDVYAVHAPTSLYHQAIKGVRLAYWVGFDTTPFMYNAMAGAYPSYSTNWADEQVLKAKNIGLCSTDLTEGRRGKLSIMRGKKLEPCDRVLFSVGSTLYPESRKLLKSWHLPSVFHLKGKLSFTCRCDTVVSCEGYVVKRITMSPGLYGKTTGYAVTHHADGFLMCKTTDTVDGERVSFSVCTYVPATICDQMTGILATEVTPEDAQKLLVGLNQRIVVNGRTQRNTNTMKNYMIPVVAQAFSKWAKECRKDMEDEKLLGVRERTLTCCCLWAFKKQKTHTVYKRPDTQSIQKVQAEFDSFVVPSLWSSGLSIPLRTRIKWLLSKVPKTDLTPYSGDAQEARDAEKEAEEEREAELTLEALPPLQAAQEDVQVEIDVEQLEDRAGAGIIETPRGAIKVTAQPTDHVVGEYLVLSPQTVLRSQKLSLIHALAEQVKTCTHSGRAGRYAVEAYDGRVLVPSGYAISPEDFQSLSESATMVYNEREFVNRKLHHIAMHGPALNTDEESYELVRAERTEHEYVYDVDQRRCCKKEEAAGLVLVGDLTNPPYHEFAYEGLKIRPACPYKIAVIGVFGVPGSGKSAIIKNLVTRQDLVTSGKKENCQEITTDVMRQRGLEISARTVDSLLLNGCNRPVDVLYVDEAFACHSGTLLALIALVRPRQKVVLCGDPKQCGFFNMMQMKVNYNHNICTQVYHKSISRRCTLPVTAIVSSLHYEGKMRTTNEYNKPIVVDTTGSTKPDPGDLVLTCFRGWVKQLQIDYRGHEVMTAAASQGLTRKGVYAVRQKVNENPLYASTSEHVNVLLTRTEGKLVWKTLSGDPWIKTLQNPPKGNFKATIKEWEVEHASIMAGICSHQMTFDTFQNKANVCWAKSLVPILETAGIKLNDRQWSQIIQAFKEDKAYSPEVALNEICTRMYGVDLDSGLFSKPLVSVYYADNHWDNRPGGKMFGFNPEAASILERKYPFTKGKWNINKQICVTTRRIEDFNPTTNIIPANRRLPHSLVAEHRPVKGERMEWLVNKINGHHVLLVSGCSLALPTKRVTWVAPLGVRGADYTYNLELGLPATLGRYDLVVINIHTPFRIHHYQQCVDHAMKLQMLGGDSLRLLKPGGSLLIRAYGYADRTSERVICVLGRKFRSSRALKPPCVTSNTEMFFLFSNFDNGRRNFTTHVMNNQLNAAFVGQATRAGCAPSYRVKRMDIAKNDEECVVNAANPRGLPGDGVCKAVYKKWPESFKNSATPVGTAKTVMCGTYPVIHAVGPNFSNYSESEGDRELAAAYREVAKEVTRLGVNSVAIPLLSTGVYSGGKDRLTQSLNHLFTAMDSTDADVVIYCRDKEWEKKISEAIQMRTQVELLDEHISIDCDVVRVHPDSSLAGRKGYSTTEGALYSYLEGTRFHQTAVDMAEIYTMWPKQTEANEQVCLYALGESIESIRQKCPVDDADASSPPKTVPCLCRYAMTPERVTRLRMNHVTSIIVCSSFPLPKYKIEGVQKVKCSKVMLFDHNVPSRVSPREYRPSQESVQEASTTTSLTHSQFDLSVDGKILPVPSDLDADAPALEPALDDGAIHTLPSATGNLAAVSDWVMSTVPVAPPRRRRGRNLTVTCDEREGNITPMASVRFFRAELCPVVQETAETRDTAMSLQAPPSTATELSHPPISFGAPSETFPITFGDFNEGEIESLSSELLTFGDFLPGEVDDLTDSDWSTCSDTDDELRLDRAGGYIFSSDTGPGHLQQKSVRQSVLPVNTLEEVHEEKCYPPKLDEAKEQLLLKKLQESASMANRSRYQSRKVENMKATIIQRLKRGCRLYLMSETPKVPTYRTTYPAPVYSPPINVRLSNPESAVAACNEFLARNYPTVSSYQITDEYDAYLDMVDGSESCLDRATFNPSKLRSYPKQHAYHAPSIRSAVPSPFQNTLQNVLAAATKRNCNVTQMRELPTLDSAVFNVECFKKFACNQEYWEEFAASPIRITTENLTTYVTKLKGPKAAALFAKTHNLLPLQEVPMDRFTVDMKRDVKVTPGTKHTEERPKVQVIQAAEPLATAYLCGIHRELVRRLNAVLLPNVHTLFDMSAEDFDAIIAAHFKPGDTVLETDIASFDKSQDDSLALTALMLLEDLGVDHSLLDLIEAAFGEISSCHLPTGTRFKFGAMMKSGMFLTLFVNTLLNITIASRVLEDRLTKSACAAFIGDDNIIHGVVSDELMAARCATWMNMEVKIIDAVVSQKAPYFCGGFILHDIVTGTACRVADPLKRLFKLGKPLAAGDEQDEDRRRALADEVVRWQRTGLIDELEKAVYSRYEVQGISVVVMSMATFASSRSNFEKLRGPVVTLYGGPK
* = called active by the depositor; i = inactive; ? = inconclusive; & = joins results of further samples; ! = not active in a repeat; [ ] = another dose, or the depositor's remark. On the % scale 0 is the no-effect control and ±100 the full control effect; potency means the concentration at half of the fitted maximal effect.

smiles	nsP2pro inh
CC(=O)c1c(C)cc2cccc(O)c2c1O[C@@H]1O[C@H](CO)[C@@H](O)[C@H](O)[C@H]1O	-7.3%
CC(=O)N1CCCN(c2ncnc3c2CN(c2ccc([N+](=O)[O-])cc2)C(=O)N(C)C3)CC1	-10.6%
COC(=O)CNC(=O)c1cc(-c2ccc(Cl)cc2Cl)c2cnn(C)c2n1	i
CC1CC1C(=O)Nc1ccc([S+](=O)([O-])Nc2nccs2)cc1 (stereo not drawn)	-9.8%
Cc1cc(=O)n2nc(N3CCC(C(=O)NCc4ccccc4F)CC3)sc2n1	-12.4%
N#CN1CCC(N[S+](=O)([O-])c2cccc(F)c2)CC1	-7.0%
O=[S+]1([O-])N(c2ccccc2)C[C@@H](O)[C@]12CCN(Cc1ccc(C(F)(F)F)nc1)C2	-1.1%
Cc1ccc(Sc2c(C)nn(C(=O)c3ccc(Br)cc3)c2C)cc1	?
O=C(NCC#CCSc1nnc(-c2cccc3ccccc23)o1)c1cccs1	-8.3%
O=C(NCc1ccccc1Cl)c1ccc2oc(=O)n(Cc3ccccc3)c2c1	-15.6%
Cc1cc(NC(=O)CCNS(=O)(=O)c2cccc3nsnc23)ccc1Br	-12.8%
Nc1ncccc1CN1CC[C@H]2NCCC[C@]2(C(=O)O)C1	2.7%
Cc1cccc(CCNC(=O)CCc2c(C)nc3ncnn3c2C)c1	-15.0%
COc1ccc(S(=O)(=O)NCc2nc(-c3ccccc3)no2)cc1	-12.4%
CCC(=O)NC(c1ccco1)c1cc(Br)c2cccnc2c1O (stereo not drawn)	-22.0%
Fc1ccc(C(c2nnc(-c3ccccc3)o2)N2CCN(c3ccccc3)CC2)c(Cl)c1 (stereo not drawn)	?
COC(=O)[C@@H]1Cc2ncn(C(C)C)c2CN1S(C)(=O)=O	?
CCC(C)NC(=O)c1cccc(-c2ccc(OC)nn2)c1 (stereo not drawn)	i
CCN(CC)c1cc(C)c2cc(NC(=O)c3cccc(OC)c3OC)ccc2n1	-3.8%
CN(C)C[C@H]1O[C@@H](CO)[C@@H](O)[C@H]1N1CCN(c2ncccn2)CC1	-2.9%
Cc1cc(C(=O)N2CCC(N3CCCC(C(=O)NCCc4ccccc4)C3)CC2)n[nH]1 (stereo not drawn)	-7.1%
OC[C@@H]1CNC[C@H]1C1CCN(Cc2ccsc2)CC1	-9.7%
COc1cc(Cl)c(C)cc1NC(=O)C1CCN(c2nc3ccccc3n3cccc23)CC1	-17.9%
Cc1nc(S(=O)(=O)N2CCN(c3ccccc3F)CC2)cn1C	-23.7%
O=C(Nc1ccc(Br)cc1)c1cc(Br)cc(Br)c1O	-12.8%
Cc1ccc(CSc2ccc(-c3cccs3)nn2)cc1	-5.4%
CC(=O)Nc1cccc(OCc2cccc(C3Nc4ccccc4C(=O)N3Cc3ccco3)c2)c1 (stereo not drawn)	i
O=C(c1ccco1)N1CCN(c2nc3c(Cl)cccc3s2)CC1	-23.2%
CC(=O)Nc1ccc(S(=O)(=O)N2CCN(S(=O)(=O)c3c(F)cccc3F)CC2)cc1	i
C1=C/COCc2cc(ccc2OCCN2CCCC2)Nc2nccc(n2)-c2cccc(c2)COC/1	26.6%

4 compounds already listed, ordered by count of non-hydrogen atoms, smallest number first.
smiles	nsP2pro inh
CN(C)C[C@H]1O[C@@H](CO)[C@@H](O)[C@H]1N1CCN(c2ncccn2)CC1	-2.9%
Cc1cccc(CCNC(=O)CCc2c(C)nc3ncnn3c2C)c1	-15.0%
Cc1cc(NC(=O)CCNS(=O)(=O)c2cccc3nsnc23)ccc1Br	-12.8%
CC(=O)N1CCCN(c2ncnc3c2CN(c2ccc([N+](=O)[O-])cc2)C(=O)N(C)C3)CC1	-10.6%

Random excerpt: two entries already listed, in no set order.
smiles	nsP2pro inh
CC(=O)Nc1ccc(S(=O)(=O)N2CCN(S(=O)(=O)c3c(F)cccc3F)CC2)cc1	i
O=[S+]1([O-])N(c2ccccc2)C[C@@H](O)[C@]12CCN(Cc1ccc(C(F)(F)F)nc1)C2	-1.1%

(listing goes on)
smiles	nsP2pro inh
Cc1ccc(CN(Cc2ccco2)c2cnc(S(C)(=O)=O)nc2C(=O)Nc2ccc(Br)cc2)o1	-4.7%
C[C@@H]1[C@H](c2c(F)ccc(F)c2F)C[C@H](NC(=O)c2cnc3c(c2)C[C@@]2(C3)C(=O)Nc3ncccc32)C(=O)N1CC(F)(F)F	1.0%
COc1cccc(NC(=O)C2(C)CCc3cnc(NCc4ccccc4)nc32)c1 (stereo not drawn)	i
CCCn1c(C)nc2c(NCCN(C(C)C)C(C)C)nc(C)nc21	-4.2%
CNC(=O)c1cccc(S(=O)(=O)NC2CCCN(C3CCCCCC3)C2)c1 (stereo not drawn)	1.2%
CC(O)(C#Cc1ccc2c(c1)N(c1nc(N)ncc1Cl)CC2)c1nccs1 (stereo not drawn)	5.01µM*!
C[C@@]12C[C@@H](c3ccoc3)OC(=O)C1CC[C@]1(C)[C@H]2[C@H]2C=C[C@]1(O)C(=O)O2 (stereo partly drawn)	5.44µM*
CCCCOc1cccc(C(=O)N(Cc2ccc(C)o2)c2ccccn2)c1	-31.1%
COc1c2ccoc2nc2c(OC)c(O[C@@H]3O[C@@H](C)[C@H](O)[C@@H](O[C@@H]4O[C@H](CO)[C@@H](O)[C@H](O)[C@H]4O)[C@H]3OC(C)=O)ccc12	-6.4%[10 µM]
COc1ccc(C(=O)N2C[C@@H]3C[C@H](C2)c2c(NS(=O)(=O)c4ccccc4)ccc(=O)n2C3)cc1	-8.9%
COc1ccc([C@H]2OC[C@H]3[C@@H]2CO[C@@H]3c2ccc(O[C@@H]3O[C@H](CO)C(O)[C@H](O)[C@H]3O)c(OC)c2)cc1OC (stereo partly drawn)	?
O=C(CCCCC1CCCCC1)N1CCC(c2cnc[nH]2)CC1	28.0%
COc1cccc(-c2noc(CCCc3nc(C4CCOC4)no3)n2)c1 (stereo not drawn)	1.2%
Cc1ccc(-c2nn3c(C)nnc3c3ccccc23)cc1S(=O)(=O)NCC(C)O (stereo not drawn)	-12.6%
O=C1N(C2CCN(S(=O)(=O)c3cnc[nH]3)CC2)C(c2ccccc2)C12CCCC2 (stereo not drawn)	1.6%
CC1=C(C(=O)Nc2ccccc2)C(c2ccccn2)n2nc(SCc3ccccc3Cl)nc2N1 (stereo not drawn)	-14.6%
CCN1CCc2c(sc(NC(=O)c3ccc(S(=O)(=O)N(CCOC)CCOC)cc3)c2C(N)=O)C1	-33.2%
Cn1cc(S(=O)(=O)c2ccc(Cl)cc2)c(=O)c2cc(F)c(N3CCCC3)cc21	-23.9%
C=C1CC[C@@H]2[C@@](C)(CO[C@@H]3O[C@H](CO)C(O)[C@H](O)C3O)[C@H](O)CC[C@@]2(C)[C@@H]1CC/C(C)=C/CO (stereo partly drawn)	12.5%[5.1 µM]
Cc1cc2c(s1)c1cnn(Cc3c(F)ccc(C)c3F)c(=O)c1n2C	-2.0%
CCn1ccnc1CNC(=O)c1cc(OC)ccc1OC1CCN(C(=O)C2CC2)CC1	i
COC(=O)c1ccc(OCC2c3cc(OC)c(OC)cc3CCN2C(=O)COc2ccc(Cl)cc2)cc1 (stereo not drawn)	-15.3%
COCCCN1C(=O)c2ccccc2CC1(C)C(=O)NC1CCCCC1 (stereo not drawn)	-29.4%
COc1cccc(-c2ccc(CN3CCCC(NC(=O)c4ccc(Cl)cc4)C3)cc2)c1 (stereo not drawn)	0.7%
C[C@]1(O)CC[C@@H]2C(C(=O)O)=CO[C@@H](O[C@@H]3O[C@H](COC(=O)/C=C/c4ccc(O)c(O)c4)[C@@H](O)[C@H](O)[C@H]3O)[C@@H]21	16.9%[10 µM]
CN1c2ccccc2C(=O)N2CCC3c4ccccc4NC3C21 (stereo not drawn)	25.2%
CC(C)(C)c1ccc(CN2CC3(COCC2=O)CN(c2cnccn2)C3)cc1	i
CC[C@H]1C2C[C@H]3[C@@H]4N(C)c5ccccc5[C@@]45C[C@H](C2[C@H]5O)N3[C@@H]1O (stereo partly drawn)	-2.6%
O=c1c2cccnc2n(Cc2cccc(F)c2)c(=O)n1Cc1ccccc1Cl	-13.8%
C/C(=C\CCC(C)(O)c1ccc(C)cc1)C(=O)O (stereo not drawn)	4.2%

Other entries
Compound | nsP2pro inh
COC1CC(=O)C23C(=O)NC(Cc4c[nH]c5ccccc45)C2C(C)C2(C)OC2C3/C=C/CC(C)CC1O (stereo not drawn) | -19.7%[10 µM]
CC(C)(C)CC(=O)N1CC[C@H](NC(=O)NC2CCCCC2)[C@H]1C(=O)N[C@H](Cc1c[nH]c2ccccc12)C(N)=O | -4.5%
CCOC(=O)c1ccc(NC(=O)C2CC(=O)NC(=Nc3ccc(C)c(C)c3)S2)cc1 (stereo not drawn) | -5.1%
CCCC1(CO)CCCN(Cc2cnn(-c3cccc(F)c3)c2)C1 (stereo not drawn) | 1.9%
O=C(c1ccc2c(c1)N(Cc1ccccc1F)C(=O)c1ccccc1S2(=O)=O)N1CCCC1 | -12.0%
CN(c1ccccc1)c1ncnc2c1cnn2C | -15.9%
CCN(CCCNC(=O)Cn1ncc2c([nH]c3ccc(C)cc32)c1=O)c1ccccc1 | -18.0%
Cc1ccc(Nc2nc(C(N)=O)c(NC(=O)c3ccccc3Br)s2)cc1 | -0.7%
Fc1ccc(-c2noc(CCCCSc3nnc(-c4cccc5ccccc45)o3)n2)cc1 | -5.4%&-4.9%
O=C(Cn1c(=O)n(-c2ccccc2)c(=O)c2ccc(C(=O)NCc3ccc4c(c3)OCO4)cc21)Nc1ccc(Br)cc1 | -18.1%
CN(NC(=O)CC(=O)NN(C)C(=S)c1ccccc1)C(=S)c1ccccc1 | ?
Cc1cc2nc3ccc(=[N+](C)C)cc-3sc2cc1N | 9.7%
Cc1ccc(OCC(=O)NCC2(N3CCN(C)CC3)CCCCC2)cc1 | -21.1%
Cc1c(Cl)cccc1NC(=O)c1ccc2snnc2c1 | -17.4%
Fc1cc(Nc2nc(-c3ccncc3)nc3ccccc23)ccc1-c1cn[nH]c1 | i
CCC1(CC)C(=O)NC(=O)N(C)C1=O | 11.0%
Cc1nc(C)c(C(=O)N2CCC3(CC2)NC(=O)CC3C(=O)O)s1 (stereo not drawn) | i
CCCCNC(=O)[C@H]1CCC[C@H]1NC(=O)c1ccncc1 | 3.4%
O=C(Nc1ccccc1)OCC(CN1CCCCC1)OC(=O)Nc1ccccc1 (stereo not drawn) | ?
N#Cc1ccc2[nH]c(O)c(-c3ccc(CN4CCOCC4)cn3)c2c1 | 14.7%&-2.0%
O=C(NC1CC1)c1cc2n(n1)CCCN(C(=O)c1ccccc1-c1ccccc1)C2 | -3.5%
CCOCCc1nn2c(=O)cc(COC(=O)c3ccc(NC(=O)C4CCCCC4)cc3)nc2s1 | ?
COc1cc(OC)c(NC(=O)Cn2c(=O)oc3cc(S(=O)(=O)N4CCCC4)ccc32)cc1Cl | -8.9%
Cc1ccc(-c2nc3sc(CCNC(=O)c4ccc(Br)o4)c(C)n3n2)cc1 | -0.3%
COc1ccc2c(c1)CC(C(=O)NCCc1ccc(S(N)(=O)=O)cc1)CO2 (stereo not drawn) | -23.8%
C/C(O)=C(\C#N)C(=O)Nc1ccc(C(F)(F)F)cc1 | -3.3%&0.5%
O=[S+]([O-])(Nc1ccc2ccccc2c1)c1ccc(NCc2ccc(Cl)cc2O)cc1 | ?
CCOc1ccc(CCNC(=O)c2cc3ncccc3n2Cc2cccc(C)n2)cc1OCC | i
C=C1[C@@H]2CC[C@@]3(C)[C@H](c4ccoc4)OC(=O)C[C@]13O[C@H]1CC(=O)C(C)(C)[C@H](C(OC(C)=O)C(=O)OC)[C@]12C (stereo partly drawn) | -17.7%[10 µM]
C=C[C@]1(C)C[C@@H](OC(=O)CSC2C[C@H]3CC[C@@H](C2)N3C)C2(C)[C@H](C)CCC3(CCC(=O)[C@H]32)[C@@H](C)[C@@H]1O (stereo partly drawn) | 10.9%

Shown with each value named: entries from further up
canonical_smiles: C=C[C@]1(C)C[C@@H](OC(=O)CSC2C[C@H]3CC[C@@H](C2)N3C)C2(C)[C@H](C)CCC3(CCC(=O)[C@H]32)[C@@H](C)[C@@H]1O (stereo partly drawn)
  nsP2pro inh: 10.9%

canonical_smiles: C=C1[C@@H]2CC[C@@]3(C)[C@H](c4ccoc4)OC(=O)C[C@]13O[C@H]1CC(=O)C(C)(C)[C@H](C(OC(C)=O)C(=O)OC)[C@]12C (stereo partly drawn)
  nsP2pro inh: -17.7%[10 µM]

canonical_smiles: N#Cc1ccc2[nH]c(O)c(-c3ccc(CN4CCOCC4)cn3)c2c1
  nsP2pro inh: 14.7%&-2.0%

canonical_smiles: O=C(Nc1ccccc1)OCC(CN1CCCCC1)OC(=O)Nc1ccccc1 (stereo not drawn)
  nsP2pro inh: ?

The listing continues:
Compound | nsP2pro inh
CCOC(=O)c1cc(OC(=O)c2cc(Cl)ccc2OC)n(-c2ccccc2)n1 | ?
Cc1cc(Nc2cccc(C(F)(F)F)c2)nc2ccc(NC(=O)Cc3ccc(Cl)cc3)cc12 | 0.6%
CC(=O)[C@@H]1C[C@H](C(C)(C)O[C@@H]2O[C@H](CO)[C@@H](O)[C@H](O)[C@H]2O)CC[C@@]2(CO)OC(=O)C[C@@H]12 | ?
N#Cc1ccc(NC(=O)C2Cc3ccccc3CN2S(=O)(=O)c2ccc(F)cc2)cc1 (stereo not drawn) | -15.2%
COc1ccc(OC)c(-c2nnc3n2N=C(c2ccc(OC)c(OC4CCCC4)c2)CS3)c1 | -7.3%
CCC(Sc1nc2cc(OC)c(OC)cc2c(=O)n1CCc1ccc(Cl)cc1)C(=O)NCCOC (stereo not drawn) | -8.0%
COc1ccc(CCNC(=O)c2cc3sccc3n2Cc2ccc(F)cc2)cc1OC | -6.6%
O=C(CCC1N=C2c3ccccc3N=C(SCc3ccccc3F)N2C1=O)NCCc1ccccc1 (stereo not drawn) | -10.0%
Cn1cc(-c2cc3n(n2)CCC(=O)N3CCCC(=O)Nc2ccccc2F)c2ccccc21 | -24.4%
O=C(NCc1ccc(Cl)cc1)c1cc2n(n1)CC(c1ccc3c(c1)OCO3)OC2 (stereo not drawn) | i

Not all compounds are listed. The share of hits here may be higher or lower than overall.
